Screening results as filed in PubChem BioAssay.
TRPML1 blocker: qHTS for Inhibitors of the Human Mucolipin Transient Receptor Potential 1 (TRPML1) | activity change, negative = inhibition, % (test concentration not listed) | Mucolipin-1 (Homo sapiens), Q9GZU1 | 390,000 compounds, 0.02% hits | TRPML1-inducible cells, Ca2+ dye fluorescence, FDSS; stronger effect = lower value; inhibition of EC80 agonist-evoked calcium signal | AID 624415, 2012; in the data active means activity change below about -50%; inconclusive means about -30% to -50%; inactive means above about -30%;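 further: stimulus is agonist 54-4 at its EC80 concentration; on the % scale 0 is the no-effect control and ±100 the full control effect; compound concentration not given in the record; the text of the record puts the active cut at -80%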
Target sequence (Q9GZU1 whole entry, looked up): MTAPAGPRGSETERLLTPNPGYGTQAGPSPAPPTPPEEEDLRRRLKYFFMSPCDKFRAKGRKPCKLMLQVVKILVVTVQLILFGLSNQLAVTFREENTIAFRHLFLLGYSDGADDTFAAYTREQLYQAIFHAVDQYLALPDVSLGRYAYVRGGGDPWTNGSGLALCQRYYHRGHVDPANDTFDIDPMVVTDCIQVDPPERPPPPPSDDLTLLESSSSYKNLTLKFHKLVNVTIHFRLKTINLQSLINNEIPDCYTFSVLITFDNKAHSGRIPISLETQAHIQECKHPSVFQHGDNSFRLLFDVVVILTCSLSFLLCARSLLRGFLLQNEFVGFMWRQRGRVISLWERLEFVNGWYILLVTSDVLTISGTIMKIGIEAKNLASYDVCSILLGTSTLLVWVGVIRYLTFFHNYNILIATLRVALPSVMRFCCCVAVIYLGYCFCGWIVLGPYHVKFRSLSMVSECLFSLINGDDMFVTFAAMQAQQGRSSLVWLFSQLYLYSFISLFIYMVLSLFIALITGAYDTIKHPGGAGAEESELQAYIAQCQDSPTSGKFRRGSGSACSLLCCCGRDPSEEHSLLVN
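Calcium fluorescence in TRPML1-DL cells induced overnight with Tet: a 110 s read after compound pin addition, then a 110 s antagonist read after challenge with 54-4 at 4 uM final (EC80).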
ClpP mod: qHTS Assay for Activators of ClpP; Potency, µM (titrated, usually from 57.5 µM), without a hit: at the top dose activity change, negative = active; ATP-dependent Clp protease proteolytic subunit (Bacillus subtilis (strain 168)), P80244; purified B. subtilis ClpP, FRET peptide cleavage, 20 min; AID 651965, 2013; 340,000 compounds, 1.9% hits; active = well fitted falling curve with a large enough effect; inconclusive = small, poorly fitted or top-dose-only effect; inactive = no such curve, though single readings can be large or run the other way; further: potency means the concentration at half of the fitted maximal effect; the source files actives as falling curves though it sought activators and does not explain the sign; nearly all actives have a fitted effect of over 65% in size; many hits overshoot -100%
Target sequence (P80244 whole entry, looked up): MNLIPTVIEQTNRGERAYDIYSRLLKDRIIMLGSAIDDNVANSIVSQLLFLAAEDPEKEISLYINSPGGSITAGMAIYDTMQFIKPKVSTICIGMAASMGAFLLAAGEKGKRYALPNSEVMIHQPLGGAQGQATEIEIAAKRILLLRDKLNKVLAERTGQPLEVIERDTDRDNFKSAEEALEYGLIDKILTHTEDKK
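FRET quenching reversal measured ClpP activation: 10 microg/mL B. subtilis ClpP at pH 8 with the FRET-FV decapeptide, read at 430 nm after 320 nm excitation. The 20-min minus 0-min signal was scaled between DMSO/no-enzyme wells and ADEP (5.8 microM final).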
* hit, by the source's call; ? = inconclusive. This is a subset; count on the stated rates, not on these rows.

SMILES	TRPML1 blocker	ClpP mod
Cc1cc(F)ccc1S(=O)(=O)Nc1ccc2c(c1)CCCN2C(=O)c1cccs1	3	0.3%
CCCSC1=NC2(CCN(C(=O)NC3CCCCC3)CC2)N=C1c1ccc(C)cc1	-3	1.4%
O=C(NCCc1ccccc1)c1nc(-c2ccc(Cl)cc2)n2c1CCCCC2	9	-15%
CCOc1ccccc1C(=O)N1CCc2cc(OC)c(OC)cc2C1COc1ccc2c(C)cc(=O)oc2c1 (stereo not drawn)	-12	1.1%
COC(=O)c1c(NC(=O)c2nc(SC)ncc2Cl)sc2c1CCCC2	-18	-3.7%
CCCCSc1nnc2c(n1)OC(c1ccc(Br)s1)N(C(C)=O)c1ccccc1-2 (stereo not drawn)	14	-2.1%
COc1ccc(OC)c(NC(=O)Cn2c(=O)n(Cc3ccco3)c(=O)c3cc(OC)c(OC)cc32)c1	6	-8.6%
CC(C)(C)OC(=O)N1CCC(c2c(C(=O)NCc3cccs3)cnn2-c2ccc(F)cc2F)CC1	-2	1.6%
N#Cc1ccccc1Cn1c(=O)n(-c2cccc(C(F)(F)F)c2)c(=O)c2sccc21	29	-1.6%
O=C(C1CCN(c2ncnc3c2nc2n3CCCCC2)CC1)N1CCN(c2ccccc2)CC1	55	0.4%
COc1cccc(OC)c1C(=O)Nc1nc2c(s1)CCc1ccccc1-2	-4	0.8%
Cc1cc(C(=O)N2CCN(c3cc(Cl)ccc3C)CC2)c2c(C)nn(-c3ccccc3)c2n1	1	4.6%
Cc1oc2ncnc(N3CCCCC3)c2c1C(=O)N1CCN(c2ccc(Cl)cc2)CC1	-12	-0.8%
Cc1c(Cl)cccc1-c1ccc(C(=O)Nc2ccc(F)cc2)o1	47	?
c1ccc(CSc2nnc(C3CCNCC3)o2)cc1	-15	-0.3%
COC(=O)c1c(C)sc(-c2c(-c3ccc4c(c3)OCCO4)[nH]c3c2c(=O)[nH]c(=O)n3C)c1O	-19	0.5%
COc1ccccc1NC(=O)CSc1oc(-c2ccco2)nc1S(=O)(=O)c1ccc(Br)cc1	7	-9.4%
COCCCNC(=O)C1CCN(C(=O)c2cc3sccc3n2Cc2ccc(Cl)cc2)CC1	-16	-2.1%
COc1cccc(-c2cnc(C(O)c3ccc(F)c(C)c3)[nH]2)c1 (stereo not drawn)	-13	-0.6%
COc1ccc(Cl)cc1NC(=O)NCc1noc2ccccc12	20	-3.5%
CCOC(=O)c1c(C)[nH]c(CCC(=O)NCCCN2CCN(c3cccc(Cl)c3)CC2)c1C	9	-1.1%
COc1ccc(-c2noc(N(c3nc(-c4ccc(OC)c(OC)c4)no3)c3ccccc3OC)n2)cc1OC	-16	-11%
COc1ccc(-c2cn3nc(N4CCCC(C(=O)Nc5cc(Cl)ccc5OC)C4)sc3n2)cc1 (stereo not drawn)	-16	1.7%
COc1cc(C2C(C(=O)OCC(C)C)=C(C)N=C3SCCC(=O)N32)ccc1OCc1ccccc1 (stereo not drawn)	-14	-6.0%
Cc1cccc(OCc2ccc(-c3nc(C#N)c(NCCN(C)C)o3)o2)c1	-6	4.0%
Cc1ccc(C)c(CN2C(=O)C3(c4ccccc42)N(c2ccc(Cl)cc2)C(=O)CS3(=O)=O)c1 (stereo not drawn)	56	-0.6%
COc1ccccc1N1CCN(C(=O)COc2ccccc2C#N)CC1	-11	-4.4%
CC(=O)N1CCCc2ccc(NS(=O)(=O)c3cccc(Cl)c3)cc21	25	-5.5%
CCOc1ccc(CCNC(=O)c2cnc3sc(N4CCCCC4)nn3c2=O)cc1	-8	-8.9%
CCCCC(=O)Nc1cc(-c2nc3cccnc3s2)ccc1C	10	?
Cc1nnc(NC(=O)CSc2nccn2-c2ccc(Cl)cc2)s1	10	-3.6%
CCOc1ccc2nc(N3CCCC(C(=O)NCc4ccc(OC)cc4)C3)sc2c1 (stereo not drawn)	-2	2.1%
CSc1cccc(NC(=O)C2CCCN(C(=O)c3cnn(-c4ccc(F)cc4)c3-n3cccc3)C2)c1 (stereo not drawn)	-11	-0.7%
O=S(=O)(Nc1cccc(-c2ccc(N3CCCCCC3)nn2)c1)c1ccccc1	25	-4.8%
COC(=O)c1ccc(NC(=O)CC2C(=O)N(c3ccc(Cl)cc3)C(=O)N2Cc2ccco2)cc1 (stereo not drawn)	-13	-3.6%
Cc1ccc(OC(=O)c2cc(-c3ccccc3)nc3ccc(C)cc23)cc1	-2	-3.6%
COc1ccccc1CNC(=O)c1cc2c(s1)-c1ccccc1OC2	-13	4.9%
COc1ccc(CNC(=O)CCCn2nc(C)c3sc4ccccc4c3c2=O)cc1OC	6	-10%
Cc1cccc(N(CC(=O)NCCSCc2ccccc2)S(=O)(=O)c2ccccc2)c1C	-6	-7.5%
CCN1CCSc2ccc(C(=O)NC(C)c3ccccc3)cc21 (stereo not drawn)	-13	3.7%
CCOc1ccccc1CNCCCSc1nnnn1C	9	-0.2%
CCCCN(CC)CCCNC(=O)c1c(C)oc2ncnc(N3CCOCC3)c12	-5	-0.7%
CC(C)c1ccc(NC(=O)C2Cc3ccccc3N2C(=O)c2ccccc2)cc1 (stereo not drawn)	-27	0.3%
CCOC(=O)c1noc2ncn(CC(=O)Nc3ccc(OC)c(Cl)c3)c(=O)c12	16	-1.1%
O=C(CC(c1cccs1)N1Cc2ccccc2C1=O)Nc1cccc(F)c1 (stereo not drawn)	10	1.4%
Cc1ccc(CNC(=O)c2cc(-c3ccc(C)cc3)nc3n[nH]c(-c4ccc(F)cc4)c23)cc1	9	-1.1%
O=C(CSc1nc2c([nH]c3ccccc32)c(=O)n1-c1ccccc1)Nc1ccc2c(c1)OCCO2	7	2.8%
Cc1cc(S(=O)(=O)NCC(c2ccc(N(C)C)cc2)N2CCOCC2)ccc1F (stereo not drawn)	-12	-8.5%
CCOc1ccc(C2=NC(c3ccc(OC)cc3)=Nc3ccc(Cl)cc3N2)cc1	-6	-2.4%
CCOc1ccccc1CNC(=O)c1cccn1-c1nnc(N2CCCC2)s1	-8	-2.9%
COc1ccc(NC(=O)c2ncn(-c3ccccc3)n2)cc1Cl	-1	199%
COC(=O)c1ccc(NS(=O)(=O)c2ccc3[nH]c4c(c3c2)CCCC4)cc1	-18	-5.2%
Cc1ccc(C)c(N2CCN(C(=O)c3cc(S(=O)(=O)N4CCC(C)CC4)cn3C)CC2)c1	7	0.0%
COc1ccc2cc3cc(C(=O)Nc4cc(C)c(Cl)cc4OC)oc3nc2c1	16	-2.9%
COC(=O)c1sccc1S(=O)(=O)N1CCN(c2ccccc2)CC1	-14	1.3%
COc1ccc(-c2nnc(Nc3ccc(OCC(N)=O)cc3)c3ccccc23)cc1	24	4.9%
CC(C)N1C(=O)C(O)(c2c[nH]c3ccccc23)c2ccccc21 (stereo not drawn)	-8	-1.6%
CCOC(=O)CNC(=O)c1cc2c(=O)n3cccc(C)c3nc2n1C	-8	-20%
CCOc1ccc(C2C(=O)N(C3CCCCC3)CC(=O)N2CCC2=CCCCC2)cc1OC (stereo not drawn)	-4	-0.1%
CCc1ccc(NS(=O)(=O)c2ccc3[nH]cc(C(=O)NCc4ccc(C)cc4)c(=O)c3c2)cc1	8	-26%

Carrying on:
SMILES	TRPML1 blocker	ClpP mod
CCN1CCN(c2ncc3c(n2)CCN(Cc2ccccc2C)C3)CC1	-23	-3.7%
O=C(NC1CC1)c1ccc(Cn2c(SCc3cccc(F)c3)nc3cccnc32)cc1	7	5.3%
Cn1nc(-c2ccccc2F)c2cc(C(=O)NCc3cccc(Cl)c3)sc21	12	3.6%
CCOc1ccc(CCNC(=O)c2ccc3nc(N4CCC(C)CC4)sc3c2)cc1OCC	23	-5.6%
Cc1cccc(N2CCN(S(=O)(=O)c3cn(C)c(C)n3)CC2)c1C	-18	-0.6%
COc1ccccc1C(=O)Nc1ccc(NC(=O)c2cccs2)cc1	4	-3.2%
OC1CCC(Nc2ccn3nc(-c4cccc(OCc5ccccc5)c4)cc3n2)CC1 (stereo not drawn)	88	4.4%
CC(=O)Nc1ccc(NC(=O)CC(C)n2ccc(C)n2)cc1 (stereo not drawn)	-4	-2.1%
Cc1cc(C)cc(NC(=O)c2ncn(-c3ccccc3)n2)c1	-1	4.8%
Cc1cccc(NC(=O)c2cc(S(=O)(=O)N3CCc4ccccc43)ccc2F)c1C	55	-3.8%
CCOC(=O)c1ccc(NC(=O)c2c(NCc3cccs3)sc3c2CCCCC3)cc1	12	-1.0%
NC(=O)C1CCN(S(=O)(=O)c2ccc(N3CCCCS3(=O)=O)cc2)CC1	38	1.0%
CCOC(=O)C1CCCN(S(=O)(=O)c2ccc3[nH]c(=O)ccc3c2)C1 (stereo not drawn)	-5	-15%
COc1ccc(CNC(=O)CCNS(=O)(=O)c2ccc3c(c2)CCCC(=O)N3)cc1	-1	-8.4%
COc1ccc(-c2c(C)nn3c(C(F)(F)F)cc(-c4ccc(Br)cc4)nc23)cc1	9	-2.1%

Complete entries, quoted from the list. Order of values: TRPML1 blocker | ClpP mod
CCOc1ccc(CCNC(=O)c2ccc3nc(N4CCC(C)CC4)sc3c2)cc1OCC across the screens: 23 | -5.6%
NC(=O)C1CCN(S(=O)(=O)c2ccc(N3CCCCS3(=O)=O)cc2)CC1 across the screens: 38 | 1.0%
CC(=O)Nc1ccc(NC(=O)CC(C)n2ccc(C)n2)cc1 (stereo not drawn) across the screens: -4 | -2.1%

More results follow.
SMILES	TRPML1 blocker	ClpP mod
CCOC(=O)c1c(NC(=O)COc2ccccc2Br)sc2c1CCCCC2	-16	-1.4%
COc1cccc(CNC(=O)C(Cc2ccccc2)NS(=O)(=O)c2ccc3c(c2)CCN3C(C)=O)c1 (stereo not drawn)	2	-1.7%
CN1C(=O)c2ccccc2Sc2ccc(NC(=O)N3CCN(c4cccc(Cl)c4)CC3)cc21	-9	-1.1%
O=C(Cn1ncc2c3ccccc3n(Cc3ccccc3F)c2c1=O)NCCc1ccc(Cl)cc1	6	-0.3%
CCC(C)NC(=O)Cn1c(=O)n(-c2cc(OC)cc(OC)c2)c(=O)c2ccccc21 (stereo not drawn)	-1	-2.8%
CC(=O)c1cccc(NC(=O)Nc2c(C)n(C)n(-c3ccccc3)c2=O)c1	-6	-2.6%
CC1CCc2c(sc(NC(=O)c3ccc(Cl)cc3Cl)c2C#N)C1 (stereo not drawn)	12	0.3%
COc1ccc2cc(CNc3ccc(C)cc3)c(=O)n(CC(=O)Nc3cccc(Cl)c3C)c2c1	22	-7.0%
COc1ccc(NC(=O)N2CCc3c(sc4c3CCCC4)C2c2ccc(F)cc2)cc1 (stereo not drawn)	20	-7.4%
CCCCN(CCCC)S(=O)(=O)c1ccc2oc(C(=O)NCc3ccc(C)cc3)c(C)c2c1	4	-0.5%
CCc1ccc(C(c2ccccc2)c2c(C)[nH]c3ccccc23)s1 (stereo not drawn)	-4	-8.2%
CCOc1ccccc1Nc1sc(C(=O)c2ccc(Cl)cc2)c(N)c1S(=O)(=O)c1ccccc1	25	-8.1%
COc1ccc(Nc2ncnc3c2cnn3-c2ccc(C)cc2)cc1Cl	27	-15%
COc1cc(-c2nnc(SCC(=O)NCc3ccccc3Cl)o2)cc(OC)c1OC	11	-1.5%
COCCCNC(=O)c1oc2c(c1C)-c1nn(Cc3cccc(Cl)c3)cc1CC2	-16	-25%
CCn1cnc2c(=O)oc3ccc(S(=O)(=O)N4CCN(c5cc(C)ccc5C)CC4)cc3c21	4	-13%
Cc1ccc(C)c(N(C)C(=O)C2CCN(c3ncnc4c3nc3n4CCCCC3)CC2)c1	15	1.6%
Cc1ccc(CCNC(=O)CN(c2ccc(C(C)C)cc2)S(=O)(=O)c2c(C)nn(C)c2C)cc1	21	1.4%
CCOc1cccc(C2Nc3ccccc3-c3cc(C)nn32)c1O (stereo not drawn)	12	3.2%
Cc1cccc2c1N(Cc1ccccc1OCCC(C)C)C(=O)C2=O	58	0.5%
CCOC(=O)N1CCc2c(sc3c2c(=O)n(Cc2ccccc2)c(=O)n3Cc2ccccc2Cl)C1	-7	-0.8%
CCCCn1cc(S(=O)(=O)c2ccccc2)c(=O)c2cc(F)c(N3CCN(CCC)CC3)cc21	1	-14%
O=c1c2sc3ccccc3c2n(Cc2cccc(Cl)c2)c(=O)n1Cc1ccco1	-5	3.1%

4 of these compounds in a different format.
Sequence of screens – TRPML1 blocker | ClpP mod
> CCOc1cccc(C2Nc3ccccc3-c3cc(C)nn32)c1O (stereo not drawn)
    12 | 3.2%
> Cc1cccc2c1N(Cc1ccccc1OCCC(C)C)C(=O)C2=O
    58 | 0.5%
> CCOC(=O)N1CCc2c(sc3c2c(=O)n(Cc2ccccc2)c(=O)n3Cc2ccccc2Cl)C1
    -7 | -0.8%
> CCCCn1cc(S(=O)(=O)c2ccccc2)c(=O)c2cc(F)c(N3CCN(CCC)CC3)cc21
    1 | -14%
